MITF inhib: MITF inhibition | AID 2240 | TRPM1 promoter luciferase, luminescence, 24 h | inhibition, % (no concentration beside the values) | actives 0.28% (n = 37,000);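 active = most replicates at 85% or more, or half of them and the mean; inconclusive = half reach 85% but not the mean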;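 also: human melanocyte line stably carrying TRPM1 promoter luciferase reporter; 0% = vehicle wells and 100% = a positive control; the first replicate is given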
Shh pathway inh: blocks Sonic Hedgehog signaling. AID 2313. actives 2.1% (n = 22,000). Shh-LIGHT2 Gli-luciferase reporter, 30 h. inhibition, % (no concentration beside the values);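 active = replicate mean of 65% or more; inconclusive = mean lower but half the replicates past it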;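 also: pathway switched on by Shh-conditioned medium diluted 1 in 25 in low serum; 100 nL library stock added to about 40 µL; 0% = median of neutral wells and 100% = positive control level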
YB-1 expr inh: YB-1 expression inhibition | U2OS, qRT-PCR YB-1 vs CDIP delta delta Cp, 16 h; hits give high values; zero = DMSO, each unit about twofold | actives 0.37% (n = 30,000) | AID 434959 | delta delta Cp (YB-1 minus CDIP) (no concentration beside the values);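 active = delta delta Cp rounded down to an integer at or above 3, about 3 SD of DMSO wells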;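 also: higher means less YB-1 transcript or more CDIP transcript relative to DMSO; stock transfer was 100 nL into about 100 µL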
PD-1 reversal: activators reversing PD-1 mediated T-cell inhibition; primary human CD4 T cells, PD-L1 beads, CellTiter-Glo 96 h; activation, % (concentration not given with the values); 29,000 tested, under 10 active; AID 2316;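 active = replicate mean of 50% or more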;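 also: 0% = median vehicle wells and 100% = positive control; 100 nL library stock added to about 50 µL; numbers are from one replicate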
Numbers without * were called inactive; u = inconclusive; x = no result given. Not all compounds are listed, so the mix of outcomes need not match the whole.

The line under a structure holds: MITF inhib	PD-1 reversal	Shh pathway inh	YB-1 expr inh
1: C[C@H]1CN([C@@H](C)CO)C(=O)Cc2cc(NC(=O)C3CCCCC3)ccc2O[C@H]1CN(C)Cc1ccc(C(=O)O)cc1
    -25	0.8	-20	-0.46
2: Cc1noc(C)c1S(=O)(=O)Nc1ccc2c(c1)C(=O)N([C@H](C)CO)C[C@@H](C)[C@@H](CN(C)C(=O)Nc1ccc3c(c1)OCO3)O2
    -7	-0.5	x	-0.25
3: C[C@H](CO)N1C[C@H](C)[C@H](CN(C)Cc2ccc(Cl)c(Cl)c2)Oc2c(NS(=O)(=O)c3cn(C)cn3)cccc2C1=O
    -12	-0.3	-27	-0.32
4: Cc1nc([N+](=O)[O-])c(Sc2nc3ncc(Cl)cc3[nH]2)n1Cc1ccccc1
    27	-13	x	x
5: COc1ccc(CN(C)C[C@@H]2Oc3c(NC(=O)NC4CCCCC4)cccc3C(=O)N([C@@H](C)CO)C[C@@H]2C)cc1
    12	0.5	-11	-0.21
6: C[C@@H]1CN([C@@H](C)CO)C(=O)c2cccc(NS(=O)(=O)c3ccc(Cl)cc3)c2O[C@@H]1CN(C)S(=O)(=O)c1ccc(Cl)cc1
    -1	0.6	-3	-0.28
7: C[C@H]1CN([C@@H](C)CO)C(=O)c2cccc(NC(=O)C3CC3)c2O[C@H]1CN(C)Cc1ccc(C(F)(F)F)cc1
    -9	-1.7	25	0.56
8: COc1ccc(S(=O)(=O)N(C)C[C@H]2Oc3c(NC(=O)Nc4ccc(F)cc4)cccc3C(=O)N([C@@H](C)CO)C[C@@H]2C)cc1
    -19	5.1	-16	-0.16
9: COc1ccc(Cl)cc1NC(=O)N(C)Cc1c(C)nn(C)c1C
    -17	-0.5	x	x
10: COc1ccccc1OCC(=O)Nc1ccc(-c2nc3ccc(C)cc3[nH]2)cc1
    30	-8.4	x	x
11: Cc1cc(-c2ccc3ccccc3n2)nc2ccc3ccccc3c12
    -2	0.6	-11	-0.084
12: COc1cc(CCC(=O)O)oc(=O)c1
    -5	1.4	-22	0.94
13: CCOc1ccc(C)cc1S(=O)(=O)n1cnc2ccccc21
    38	-1.4	x	x
14: CC(C)NC(=O)Nc1ccc2c(c1)C(=O)N([C@H](C)CO)C[C@@H](C)[C@H](CN(C)S(=O)(=O)c1ccccc1)O2
    0	0.5	-20	-0.013
15: C[C@H]1CN([C@@H](C)CO)C(=O)c2cc(NC(=O)Cc3ccccc3)ccc2O[C@@H]1CN(C)S(=O)(=O)c1ccc(Cl)cc1
    15	0.9	22	0.16
16: N=c1oc2ccccc2cc1C(=O)Nc1ccc(F)cc1
    44	-1.8	x	-0.24
17: Cc1noc(C)c1NC(=O)Nc1ccc2c(c1)C(=O)N([C@@H](C)CO)C[C@@H](C)[C@@H](CN(C)S(=O)(=O)c1ccc(F)cc1)O2
    -5	2.1	x	0.046
18: COc1ccc(NC(=O)N(C)C[C@H]2OCCCC[C@@H](C)Oc3ccc(NC(=O)Nc4ccc(C(F)(F)F)cc4)cc3C(=O)N([C@H](C)CO)C[C@@H]2C)cc1
    -28	x	u	-0.22
19: CN(CC(=O)Nc1ccc(C(F)(F)F)cc1)S(=O)(=O)c1ccc(Br)cc1
    16	-5.2	x	x
20: CC(C)C(O)(C(=O)OCc1ccc(O[C@@H]2O[C@H](CO)[C@@H](O)[C@H](O)[C@H]2O)cc1)C(C)O (some centres not stated)
    -19	-0.4	-22	-0.12

Part of the list above in a different format:
11) Cc1cc(-c2ccc3ccccc3n2)nc2ccc3ccccc3c12
  MITF inhib: -2	PD-1 reversal: 0.6	Shh pathway inh: -11	YB-1 expr inh: -0.084

12) COc1cc(CCC(=O)O)oc(=O)c1
  MITF inhib: -5	PD-1 reversal: 1.4	Shh pathway inh: -22	YB-1 expr inh: 0.94

13) CCOc1ccc(C)cc1S(=O)(=O)n1cnc2ccccc21
  MITF inhib: 38	PD-1 reversal: -1.4	Shh pathway inh: x	YB-1 expr inh: x

14) CC(C)NC(=O)Nc1ccc2c(c1)C(=O)N([C@H](C)CO)C[C@@H](C)[C@H](CN(C)S(=O)(=O)c1ccccc1)O2
  MITF inhib: 0	PD-1 reversal: 0.5	Shh pathway inh: -20	YB-1 expr inh: -0.013

The listing continues:
The line under a structure holds: MITF inhib	PD-1 reversal	Shh pathway inh	YB-1 expr inh
21: C[C@H]1CN([C@@H](C)CO)C(=O)c2cc(NC(=O)CCCCCC(=O)Nc3ccccc3N)ccc2O[C@H]1CN(C)Cc1ccc(-c2ccccc2)cc1
    11	-1.6	x	-0.063
22: COc1cc(/C=C/C(=O)O)cc(OC)c1OC
    15	x	-17	0.2
23: COc1ccc(S(=O)(=O)Nc2cccc3c2O[C@H](CN(C)C(=O)Nc2ccccc2)[C@H](C)CN([C@H](C)CO)C3=O)cc1
    0	0.5	-16	-0.22
24: C[C@H](CO)N1C[C@H](C)[C@H](CN(C)C(=O)Nc2ccc3c(c2)OCO3)Oc2ccc(NC(=O)C3CC3)cc2C1=O
    -2	0.1	-19	-0.095
25: C[C@@H]1CN([C@@H](C)CO)C(=O)c2cccc(NC(=O)c3ccc(-c4nccs4)cc3)c2O[C@H]1CN(C)C
    1	-1.0	-9	0.036
26: COc1ccc(OC)c(NC(=O)c2c(NC(=O)c3ccco3)sc3c2CCC3)c1
    -23	4.3	x	x
27: C[C@@H]1CN([C@@H](C)CO)C(=O)c2cccc(N(C)C)c2O[C@H]1CN(C)Cc1ccc(C(=O)Nc2ccccc2N)cc1
    -5	-1.6	x	-0.49
28: Cc1noc(C)c1NC(=O)Nc1ccc2c(c1)C(=O)N([C@H](C)CO)C[C@H](C)[C@H](CN(C)S(=O)(=O)c1cn(C)cn1)O2
    -9	x	x	-0.41
29: CC(Oc1ccccc1)C(=O)Nc1cccc(-c2nnc(-c3ccccc3)o2)c1 (configuration not stated)
    -35	2.5	x	x
30: C[C@H](CO)N1C[C@H](C)[C@H](CN(C)C(=O)NC2CCCCC2)Oc2ccc(NC(=O)Nc3ccccc3)cc2CC1=O
    -12	3.4	-18	0.16
31: C[C@@H]1CCCCO[C@@H](CN(C)C)[C@@H](C)CN([C@H](C)CO)C(=O)c2cc(NC(=O)Nc3ccc(F)cc3)ccc2O1
    -3	1.5	-35	0.19
32: N#C[C@@H](O[C@@H]1O[C@H](CO)[C@@H](O)[C@H](O)[C@H]1O[C@@H]1O[C@H](CO)[C@@H](O)[C@H](O)[C@H]1O)c1ccccc1
    -6	-0.4	-4	-0.16
33: Cc1cc2nnc(SCC(=O)c3cc(C)n(Cc4ccccc4)c3C)n2c2ccccc12
    -12	1.7	x	0.33
34: Cc1noc(C)c1NC(=O)Nc1cccc2c1O[C@H](CN(C)S(C)(=O)=O)[C@@H](C)CN([C@H](C)CO)C2=O
    3	0.6	12	0.08
35: C[C@@H]1CN([C@H](C)CO)C(=O)Cc2cc(NC(=O)c3ccncc3)ccc2O[C@@H]1CN(C)C(=O)Nc1ccccc1
    -12	1.1	-17	0.22
36: COC(=O)c1cc(OC)c(OC)cc1NC(=O)COc1ccc2ccccc2c1Br
    -6	-0.3	x	x
37: O=C1c2cccc(O)c2C(=O)c2c(O)cccc21
    -4	x	24	0.11
38: C[C@@H]1CN([C@@H](C)CO)C(=O)Cc2cc(NC(=O)C3CC3)ccc2O[C@@H]1CN(C)CC1CCCCC1
    -6	1.0	9	0.15
39: C[C@@H]1CN([C@H](C)CO)C(=O)Cc2cc(NS(=O)(=O)c3cn(C)cn3)ccc2O[C@@H]1CN(C)C(=O)Nc1cccc2ccccc12
    9	1.7	3	0.081
40: CS(=O)(=O)N(CC(=O)NC1CCCCCC1)c1cc(Cl)c(Cl)cc1Cl
    35	-3.4	x	x

(next part)
The line under a structure holds: MITF inhib	PD-1 reversal	Shh pathway inh	YB-1 expr inh
41: C[C@H]1CN([C@@H](C)CO)C(=O)Cc2cc(NS(=O)(=O)c3ccc(F)cc3)ccc2O[C@H]1CN(C)C(=O)Nc1ccc(C(F)(F)F)cc1
    4	-1.9	-18	-0.39
42: C[C@H](CO)N1C[C@H](C)[C@@H](CN(C)C(=O)Nc2ccc(F)cc2)Oc2ccc(NS(C)(=O)=O)cc2C1=O
    0	1.5	-2	-0.066
43: C[C@H](CO)N1C[C@H](C)[C@H](CN(C)Cc2ccncc2)Oc2c(NC(=O)c3ccc(-c4nccs4)cc3)cccc2C1=O
    -13	2.2	47	0.089
44: CC1C(c2ccccc2)=[N+]([O-])C(C)(C)N1O (configuration not stated)
    -7	-1.0	-11	0.61
45: Cc1noc(C)c1S(=O)(=O)N(C)C[C@H]1Oc2ccc(NC(=O)Nc3ccc4c(c3)OCO4)cc2CC(=O)N([C@H](C)CO)C[C@H]1C
    1	x	-37	-0.041
46: CO[C@]12C[C@@H](COC(=O)c3cncc(Br)c3)CN(C)[C@@H]1Cc1cn(C)c3cccc2c13
    10	x	-2	0.23
47: Cc1c(C(=O)N2CCOCC2)[nH]c2ccc(OCc3ccccc3)cc12
    -8	0.2	-38	-0.36
48: C[C@@H]1O[C@@H](O[C@H]2[C@H](O[C@H]3CC[C@@]4(C)C(CC[C@]5(C)C4CC=C4[C@@H]6CC(C)(C)CC[C@]6(C(=O)O[C@@H]6O[C@H](CO[C@@H]7O[C@H](CO)[C@@H](O)[C@H](O)[C@H]7O)[C@@H](O)[C@H](O)[C@H]6O)CC[C@]45C)[C@]3(C)CO)OC[C@H](O)[C@@H]2O)[C@H](O)[C@H](O)[C@H]1O (some centres not stated)
    0	0.1	-2	-0.035
49: C[C@@H]1CN([C@@H](C)CO)C(=O)c2cccc(NC(=O)C3CCCCC3)c2O[C@@H]1CN(C)S(C)(=O)=O
    -8	-1.1	35	-0.077
50: C[C@@H]1CN([C@H](C)CO)C(=O)c2cc(NC(=O)Cn3cnnn3)ccc2O[C@H]1CN(C)C(=O)Nc1ccc(C(F)(F)F)cc1
    -2	0.2	14	-0.095
51: C[C@@H]1O[C@@H](OCC2OC(OC3C(OC4C(Oc5c(-c6ccc(O)c(O)c6)oc6cc(O)cc(O)c6c5=O)OC(CO)C(O)C4O)OC(CO)C(O)C3O)C(O)C(O)C2O)[C@H](O)[C@H](O)[C@H]1O (some centres not stated)
    8	2.6	-41	0.056
52: C[C@@H]1CN([C@H](C)CO)C(=O)Cc2cc(NC(=O)Nc3ccc(C(F)(F)F)cc3)ccc2O[C@@H]1CN(C)Cc1ccc(Cl)c(Cl)c1
    3	x	21	-0.11
53: C[C@H]1CN([C@@H](C)CO)C(=O)c2cc(NC(=O)CCC(F)(F)F)ccc2O[C@H]1CN(C)C(=O)Nc1ccc(C(F)(F)F)cc1
    7	-3.5	-8	0.13
54: C[C@@H]1CN([C@H](C)CO)C(=O)c2cccc(NC(=O)NC3CCCCC3)c2O[C@@H]1CN(C)Cc1ccc(Cl)c(Cl)c1
    3	-4.4	26	0.29
55: C[C@H]1CN([C@@H](C)CO)C(=O)Cc2cc(NC(=O)Nc3ccc(F)cc3)ccc2O[C@H]1CN(C)S(=O)(=O)c1cccs1
    4	-1.2	-35	-0.063
56: Cc1cc(C(=O)Nc2cccc3c2O[C@H](CN(C)S(=O)(=O)c2c(C)noc2C)[C@H](C)CN([C@@H](C)CO)C3=O)n(C)n1
    1	2.7	26	0.052
57: C[C@H]1CN([C@@H](C)CO)C(=O)c2cc(NS(C)(=O)=O)ccc2O[C@H]1CN(C)C(=O)Nc1ccc2c(c1)OCO2
    -13	-0.5	x	-0.16
58: C[C@@H]1CN([C@H](C)CO)C(=O)Cc2cc(NS(=O)(=O)c3ccccc3)ccc2O[C@@H]1CN(C)S(C)(=O)=O
    -16	1.5	14	0.22
59: CCCC1=C(C(=O)OCC)C(c2cccnc2)n2nc(C)nc2N1 (configuration not stated)
    3	0.4	x	x
60: C[C@H]1CN([C@@H](C)CO)C(=O)c2cc(NC(=O)c3ccncc3)ccc2O[C@@H]1CN(C)C(=O)NC1CCCCC1
    -6	0.0	-33	-0.24

Continued:
The line under a structure holds: MITF inhib	PD-1 reversal	Shh pathway inh	YB-1 expr inh
61: Cc1ccc(S(=O)(=O)Nc2ccc3c(c2)C(=O)N([C@@H](C)CO)C[C@@H](C)[C@@H](CN(C)S(=O)(=O)c2ccccc2)O3)cc1
    3	-1.0	15	-0.12
62: C[C@@H]1CCCCO[C@@H](CN(C)Cc2ccc(Cl)c(Cl)c2)[C@@H](C)CN([C@H](C)CO)C(=O)c2cc(NS(C)(=O)=O)ccc2O1
    3	-3.2	0	-0.53
63: C[C@@H]1CN([C@@H](C)CO)C(=O)c2cccc(NC(=O)Nc3ccccc3)c2O[C@@H]1CN(C)Cc1ccc(Cl)c(Cl)c1
    -13	-3.0	14	-0.2
64: Cc1cccc(C(=O)NCc2n[nH]c(=S)n2-c2ccccc2)c1
    -12	1.4	x	x
65: C[C@H](CO)N1C[C@H](C)[C@H](CN(C)C(=O)Nc2ccc(C(F)(F)F)cc2)Oc2ccc(NC(=O)Cn3cnnn3)cc2C1=O
    1	x	-68	0.1
66: C[C@H](CO)N1C[C@H](C)[C@H](CN(C)Cc2ccncc2)Oc2ccc(NC(=O)c3ccncc3)cc2CC1=O
    -4	1.3	-13	-0.11
67: COc1ccc(OC)c(NC(=O)C2=C(C)NC(=S)NC2c2ccc(OC)cc2OC)c1 (configuration not stated)
    -16	-8.0	x	x
68: Cc1cc(C)c2nc(-c3ccncc3)cc(C(=O)NCCCn3ccnc3)c2c1
    0	0.1	x	x
